# Bioassay records as filed in PubChem BioAssay.
# VDR inh = blocks the human vitamin D receptor; P11473; VDR-SRC2-3 peptide fluorescence polarization, 2 h; Potency, µM, inactives show max response, negative = inhibition, actives largely listed as inhibitors; actives 0.93% (n = 400,000); AID 504847; active means well fitted inhibition curve with a large enough effect; inconclusive means small, poorly fitted or top-dose-only effect, or another doubt; inactive means no such curve, though single readings can be large or run the other way; further: series mostly up to about 120 µM
# Target sequence (P11473 whole entry, looked up): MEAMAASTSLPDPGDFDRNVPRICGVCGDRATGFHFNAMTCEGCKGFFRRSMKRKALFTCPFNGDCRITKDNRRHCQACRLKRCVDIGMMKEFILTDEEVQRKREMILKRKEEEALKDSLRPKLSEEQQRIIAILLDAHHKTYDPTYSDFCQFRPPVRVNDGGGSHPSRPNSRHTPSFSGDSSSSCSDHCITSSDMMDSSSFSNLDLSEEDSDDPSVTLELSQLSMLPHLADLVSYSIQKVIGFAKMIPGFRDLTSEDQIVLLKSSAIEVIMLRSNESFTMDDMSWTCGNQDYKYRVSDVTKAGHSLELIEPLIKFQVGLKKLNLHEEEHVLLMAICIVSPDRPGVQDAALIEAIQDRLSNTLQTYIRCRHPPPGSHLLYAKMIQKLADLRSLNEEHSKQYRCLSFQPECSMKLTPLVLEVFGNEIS
#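 VDR–SRC2-3 interaction, FP format. Cmpds 23 nl via pintool, brief spin, 2 h ambient incubation.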
# * hit, by the source's call; ? = inconclusive; & = joins results of further samples. On the % scale 0 is the no-effect control and ±100 the full control effect; potency means the concentration at half of the fitted maximal effect.
SMILES,VDR inh
COCCCn1c(Cc2csc(Nc3cccc(Cl)c3)n2)nnc1SCC(=O)OC,11%
NC(=O)c1ccccc1OCCOc1ccc(Br)cc1,12%
O=C(CN(c1ccc(F)cc1)S(=O)(=O)c1ccccc1)NC1CCCCCC1,1%
CNC(=O)c1cn(-c2ccc(Cl)cc2)c(=O)c2ccccc12,-1%
COc1ccc(OCCSc2nnc(C(C)NC(=O)c3ccccc3F)n2C)cc1 (stereo not drawn),3%
O=CN1CCN(C(=O)c2cccc([N+](=O)[O-])c2)CC1,2%
CC12CC3(O)OC(O1)C1(COC(=O)c4ccccc4)[C@@H]3CC21O[C@@H]1O[C@H](CO)[C@@H](O)[C@H](O)[C@H]1O,9%
O=C1NC(=O)/C(=C/c2cccc(O)c2)N1,-3%
CSCC(C)N1CCC(CO)(CCc2ccccc2)CC1 (stereo not drawn),5%
CCCN1CCC(=O)N(C(CSc2ccc(Br)cc2)c2ccccc2)CC1 (stereo not drawn),-9%
CCOc1ccc(C2C3=C(CCCC3=O)OC(N)=C2[N+](=O)[O-])cc1 (stereo not drawn),5%
FC(F)(F)c1cccc(CON=C2CCN(c3ncc(C(F)(F)F)cc3Cl)CC2)c1,-5%
Cc1onc(-c2c(F)cccc2Cl)c1C(=O)N(C)CC(=O)Nc1cccc(F)c1,0%
CC(C)(CNC(=O)CNC(=O)c1ccc(Cl)cc1Cl)N1CCOCC1,-3%
CCN(CC(=O)Nc1c(F)cccc1F)C(=O)COc1cccc2c1OC(C)(C)C2,1%
COC(=O)c1sccc1NC(=S)N1CCN(c2ccc(F)cc2)CC1,-8%
O=[N+]([O-])c1cccc(C(O)C23CN4CN(CN(C4)C2)C3)c1 (stereo not drawn),3%
COc1cc(/C=N/N=C2/NC(=O)C(c3ccccc3)S2)ccc1O (stereo not drawn),-15%
Cc1ccc(NC(=O)CCc2nnc3ccc(N4CCC5(CC4)OCCO5)nn23)cc1F,-6%
O=c1c2cnn(-c3ccc(F)cc3)c2ncn1Cc1cccc(Cl)c1,12%
CN(CC(=O)Nc1ccccc1Cl)C(=O)C1CCN(C(=O)c2ccc(Cl)cc2)CC1,2%
CN(CCNC(=O)C1CCC(=O)N(Cc2cccc(F)c2)C1)CCc1ccccc1 (stereo not drawn),-26%
Cc1cc(Nc2cccc(Cl)c2)c2ccccc2n1,-14%
CN1CCN(c2ccccc2NC(=O)COc2ccccc2)CC1,-14%
COc1ccc(C2CC(c3ccccc3)Oc3cc(OC)ccc32)cc1 (stereo not drawn),-1%&-14%

# In the list so far, eight have nitrogen in an aromatic ring.
SMILES,VDR inh
COCCCn1c(Cc2csc(Nc3cccc(Cl)c3)n2)nnc1SCC(=O)OC,11%
CNC(=O)c1cn(-c2ccc(Cl)cc2)c(=O)c2ccccc12,-1%
COc1ccc(OCCSc2nnc(C(C)NC(=O)c3ccccc3F)n2C)cc1 (stereo not drawn),3%
FC(F)(F)c1cccc(CON=C2CCN(c3ncc(C(F)(F)F)cc3Cl)CC2)c1,-5%
Cc1onc(-c2c(F)cccc2Cl)c1C(=O)N(C)CC(=O)Nc1cccc(F)c1,0%
Cc1ccc(NC(=O)CCc2nnc3ccc(N4CCC5(CC4)OCCO5)nn23)cc1F,-6%
O=c1c2cnn(-c3ccc(F)cc3)c2ncn1Cc1cccc(Cl)c1,12%
Cc1cc(Nc2cccc(Cl)c2)c2ccccc2n1,-14%

# (list continues)
SMILES,VDR inh
O=C(N/N=C/C=C/c1ccccc1)c1ccccc1Br,9%
CC(=O)N1CCOc2ccc(S(=O)(=O)NCC3CCC(C(=O)Nc4ncccc4C)CC3)cc21 (stereo not drawn),-11%
CC(C)Oc1cccc(C(=O)C2CCCN(C(=O)c3noc4c3CCCC4)C2)c1 (stereo not drawn),5%
COc1cc(C(=O)Nc2nccs2)ccc1OCc1c(C)noc1C,22%
Cc1ccc(C(=O)/C=C/Nc2ccc(S(=O)(=O)Nc3cc(C)nc(C)n3)cc2)cc1,?
CCOc1ccccc1NC(=O)c1ccc2c(c1)CCCN2S(C)(=O)=O,1%
O=C(CCC1CCCN(C(=O)c2ccc(F)c(F)c2)C1)N1CCN(c2ccccn2)CC1 (stereo not drawn),-14%
COC(=O)N1C(=O)[C@](c2ccccc2)(C2CCCC2)N1C(=O)OC,?
NS(=O)(=O)c1ccc(CCNC(=O)C2CCN(S(=O)(=O)c3cccc4cccnc34)CC2)cc1,-5%
COc1ccc(Oc2ncc3nc(-c4cccc(C#N)c4)c(=O)n(C)c3n2)cc1,-16%
COC(=O)CC1SCCNC1=O (stereo not drawn),2%
Cc1ccc(-n2ncc(C(=O)NCCN3CCC(Cc4ccccc4)CC3)c2C2CCN(C(=O)OC(C)(C)C)CC2)cc1,6%
Cc1cccc(C(=O)OC2CCN(C)CC2)c1,12%
Cc1c2cnn(CC(=O)NCc3ccccn3)c(=O)c2c(C)n1Cc1ccccc1,-1%
CCOC(=O)c1ccc(NC(=O)Cn2nc(SC)c(S(=O)(=O)c3ccc(Cl)cc3)c2N)cc1,-6%
Cc1cc(C)cc(OCC(=O)OCC(=O)NCc2cccs2)c1,-8%
Cc1ccc(NC(=O)c2c(NC(=O)C(F)(F)F)sc3c2CCCCC3)cc1,?
O=C(O)CSc1nc(-c2ccccc2)nc2c1CCCC2,3%
Cc1ccccc1NC(=O)c1c(-c2ccccc2)noc1C,12%
COCCc1nnc(NC(=O)C23CC4CC(CC(C4)C2)C3)s1,-27%
CCCCC(=O)Nc1ccc(NC(=O)c2ccc(C)c([N+](=O)[O-])c2)cc1OC,-7%
NC(=O)c1cc2cc(Br)ccc2o/c1=N/NC(=O)c1cccc(F)c1,-9%
Cc1sc2nc(SCC(=O)NCc3ccco3)n(CCc3ccccc3)c(=O)c2c1C,5%
O=C(CN(C1CCCCC1)S(=O)(=O)c1ccccc1)NCC1CCCO1 (stereo not drawn),-3%
CC1(C)OC2C(CO)OC(n3cnc4c(=O)[nH]c(N)nc43)C2O1 (stereo not drawn),3%

# Going on with the list:
SMILES,VDR inh
COc1ccc(C(C)=O)cc1CN1C(=O)NC2(CCCCC2)C1=O,5%
Cc1nn(-c2ccccc2)c(C)c1/C=C1\C(=O)N(C)C(=S)N1C,7%
Cc1ccccc1NC(=O)c1ccc(CN2CC(=O)N3CCCCC3C2=O)cc1 (stereo not drawn),9%
C=CCc1cccc(OC)c1OCCOCCNCCO,-9%
Brc1ccc(N=Nc2ccc3ccccc3n2)cc1,-3%
COc1ccc(C)cc1NC(=O)COC(=O)CCC(=O)c1cccs1,-7%
CCc1ccc(N(CC(=O)Nc2ccc(OC)cc2OC)S(C)(=O)=O)cc1,0%
O=C(COC(=O)c1ccc(S(=O)(=O)NCc2ccco2)cc1)NCc1ccc(F)cc1,16%
CC(C)(C)NC(=O)c1ccc(NC(=O)c2ccccc2-c2ccccc2C(=O)O)cc1,-15%
C/C(=N\Nc1cc(C)nc(-c2ccccc2O)n1)c1ccccc1,3%
COc1ccc(-c2cc(C(=O)N(C)Cc3cccc(OC)c3OC)c3ccccc3n2)cc1OC,-15%
CC(C)CCc1noc(CN(CC2CCC2)CC2CCCO2)n1 (stereo not drawn),0%
COc1cc(OC)nc(S(C)(=O)=O)n1,-6%
CCOC(=O)c1cc(S(=O)(=O)Nc2ccc(F)cc2F)cn1C,-9%
COC(=O)COc1c(Cl)cc(C(c2c(C)[nH][nH]c2=O)c2c(C)[nH][nH]c2=O)cc1OC,?
Cc1ccc(S(=O)(=O)c2nc(-c3ccco3)oc2SC(C)c2ccccc2)cc1 (stereo not drawn),-5%
Cc1ccc(CN(Cc2ccco2)C(=O)c2oc3c(C)c(C)ccc3c2C)cc1,-1%
COc1ccc(NC(=O)CSc2ccccc2)cc1S(=O)(=O)N1CCOCC1,-5%
CC1(C(=O)OCC(=O)Nc2ccccc2)CC1(Cl)Cl (stereo not drawn),-13%
O=[N+]([O-])c1ccc(N/N=C/c2sc(N3CCOCC3)nc2-c2ccccc2)c(S(=O)(=O)Nc2ccccc2Cl)c1,-1%
COc1ccc(C(=O)/C=C/c2cc(OC)c(O)c(OC)c2)c(F)c1,?
Cc1cccc(C)c1OCc1nc2c3cnn(-c4cccc(F)c4)c3ncn2n1,14%
COc1cccc(NC(=O)C(C)C)c1,-20%
COc1cccc(N2CCN(c3ccc([N+](=O)[O-])cn3)CC2)c1,13%
O=C(Nc1ccnn1C1CCN(C(=O)c2ccc(C(F)(F)F)cc2)CC1)C1CC1,8%

# Next part:
SMILES,VDR inh
C[C@@H](CN(C)C)CN1c2ccccc2Sc2ccccc21,-11%
O=[N+]([O-])c1cc(-c2nc(-c3ccncc3)no2)ccc1NCc1ccccc1,13%
CC(C)(C)n1cnc2cc(NCc3ccc(Br)cc3)ccc21,?
O=S(Cc1ccc(Cl)cc1)c1ccccc1 (stereo not drawn),13%
CC(=O)N1CCOc2ccc(S(=O)(=O)Nc3cccc(C)c3)cc21,-3%
Cc1ccc(NC(=O)C2CCCN2C(=O)Oc2ccccc2)cc1 (stereo not drawn),0%
CCCCS(=N)(=O)CC[C@H](N)C(=O)O (stereo partly drawn),-6%
CNC(=O)C1CCC(Cn2c(=O)[nH]c3ccsc3c2=O)CC1 (stereo not drawn),-5%
Cc1cccc(NS(=O)(=O)c2cc(C(=O)N3CCCC3)ccc2Cl)c1,-4%
COc1ccccc1Nc1c2c(nc3ccc(NC(=O)c4cccc(OC)c4OC)cc13)CCCC2,-28%
O=C(CN1CCc2ccccc2C1)Nc1ccccc1Cl,-20%
CCOC(=O)c1c(-c2ccccc2)csc1N1C(=O)Nc2ccccc2N1O,-15%
CCc1ccc(NC(=O)CSc2nc(=O)n(CCCN3CCOCC3)c3c2CCCC3)cc1,-2%
CN1C/C(=C/c2cccnc2)C(=O)/C(=C/c2cccnc2)C1,45µM*
Cc1ccc(S(=O)(=O)NC(=O)N2CCCN(Cc3ccc(F)cc3)CC2)cc1,4%
CCN(Cc1ccccc1)Cc1ccc(OCc2ccccc2)c(OC)c1,-23%
CC(NC(=O)NC12CC3CC(CC(C3)C1)C2)c1ccc2c(c1)OCO2 (stereo not drawn),-5%
COc1cc(C(F)(F)F)nc2c(Br)c(C(C)(C)C)nn12,-5%
O=C(NCC(c1cccnc1)N1CCOCC1)c1cccs1 (stereo not drawn),-7%
COc1ccccc1CNC(=O)c1ccc(N2CCCC2)c(NC(=O)NCc2ccc(F)cc2)c1,5%
Cc1cc(Cl)ccc1NC(=O)COC(=O)c1nc2nccc(C)n2n1,-23%
O=C(Nc1ncc(Cc2ccc(Cl)cc2)s1)c1ccc2c(c1)CC(c1ccccc1)OC2=O (stereo not drawn),12%
CCn1c(C)c(C(C)=O)c(SC)nc1=S,-4%
C=CC[C@@H](CC(=O)N[C@@H](CO)Cc1ccccc1)C(=O)N[C@@H](COC(=O)[C@H](CC=C)CC(=O)OC(C)(C)C)Cc1c[nH]c2ccccc12,-10%
CCN(CC)S(=O)(=O)c1ccc(C)c(NC(=O)COc2ccc3c(C)cc(=O)oc3c2)c1,-1%

# Next section:
SMILES,VDR inh
COc1cccc(-n2c(SCC(=O)Nc3cc(C)on3)nc3ccccc3c2=O)c1,27%
CCCCCCCC(=O)N/N=C/c1cccnc1,-2%
COc1cc(OC)c(NC(=O)CCNC(=O)Cn2ccc3ccccc3c2=O)cc1Cl,13%
CC(C)CCNC(=O)CCn1nc(-c2ccccc2)ccc1=O,-13%
COc1ccccc1N1CCN(Cc2nc3ccsc3c(=O)[nH]2)CC1,2%
CCOc1ccc(NC(=O)CN(C)C(=O)CCNC(=O)c2ccccc2Cl)cc1OCC,-7%
CSc1ccc(CCNS(=O)(=O)c2ccc3c(c2)C(C)(C)C(=O)N3C)cc1,-8%&9%
C[N+](C)(C)CCCC(=O)c1ccc2c(c1)OCO2,-8%
CSc1nc(C)c(Cl)c(C)c1C#N,8%
CN(Cc1ccccc1)C(=O)c1cn(C)c2ccc(S(=O)(=O)N3CCCC3)cc2c1=O,18%
Cc1cc(C)cc(OCC(=O)OCC(=O)Nc2ccc(Cl)cn2)c1,16%
COc1ccc(CNC(=O)c2ccc(NC(=O)N3CCCCc4ccccc43)cc2)c(OC)c1,-1%
O=C(OC(C(=O)NC1CCCC1)c1ccncc1)C1=Cc2ccccc2OC1 (stereo not drawn),-6%
O=C(O)c1cccc(NC(=S)NC(NC(=O)c2ccccc2[N+](=O)[O-])C(Cl)(Cl)Cl)c1 (stereo not drawn),-25%
CCCCCC(C)NC(=O)CN1C(=O)NC(C)(c2ccc3ccccc3c2)C1=O (stereo not drawn),-1%
COC(=O)[C@H](C)NC(=O)NCCC1=CCCCC1,-25%
CCCC(=O)Oc1cccc(C2NC(=O)c3ccccc3O2)c1 (stereo not drawn),?
Cc1ncoc1C(=O)N1CCCC(N2CCN(c3cccc(C(F)(F)F)c3)CC2)C1 (stereo not drawn),-4%
O=C(NCCCn1ccnc1)c1cc(C2CC2)on1,-13%
COc1ccc(NC(=O)O/N=C/c2ccc(N(C)C)cc2)cc1,-3%

# Part of the list above, with each value named.
> CC(C)CCNC(=O)CCn1nc(-c2ccccc2)ccc1=O
  VDR inh: -13%
> CCCCCC(C)NC(=O)CN1C(=O)NC(C)(c2ccc3ccccc3c2)C1=O (stereo not drawn)
  VDR inh: -1%
> CCOc1ccc(NC(=O)CN(C)C(=O)CCNC(=O)c2ccccc2Cl)cc1OCC
  VDR inh: -7%
> O=C(O)c1cccc(NC(=S)NC(NC(=O)c2ccccc2[N+](=O)[O-])C(Cl)(Cl)Cl)c1 (stereo not drawn)
  VDR inh: -25%

# Only part of the results is shown (hit frequency here may not be typical).
